Source: PubChem
HPGD block: inhibitors of human 15-hydroxyprostaglandin dehydrogenase (HPGD); P15428; purified HPGD, NADH fluorescence kinetic, PGE2 substrate; Potency, µM, for inactives: at the highest dose activity change, negative = inhibition, usual class: inhibitors; 150,000 compounds, 4.3% hits; AID 894; active = well fitted inhibition curve with a large enough effect (not every such curve was filed as active); inconclusive = small, poorly fitted or top-dose-only effect, or another doubt; inactive = no such curve, though single readings can be large or run the other way;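 note: top concentration of the series not given in the record; plate controls included wells without enzyme; inactives centre near -10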
Target sequence (P15428 whole entry, looked up): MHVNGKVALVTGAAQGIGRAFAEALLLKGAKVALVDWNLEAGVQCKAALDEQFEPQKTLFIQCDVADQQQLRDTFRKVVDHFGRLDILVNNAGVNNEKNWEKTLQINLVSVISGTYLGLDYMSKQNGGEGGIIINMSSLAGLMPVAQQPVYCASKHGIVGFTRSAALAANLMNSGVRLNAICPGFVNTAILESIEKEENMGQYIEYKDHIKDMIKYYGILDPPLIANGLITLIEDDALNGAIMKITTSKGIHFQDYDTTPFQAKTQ
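NADH formation kinetics: reaction with 30 uM PGE2 and 1 mM NAD+ (final), 20 nM enzyme, Tris-HCl pH 8 with Tween 20, after 15 min compound preincubation at room temperature. Fluorescence change, last versus first of five reads.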
An asterisk follows results filed as active; ? = inconclusive; & = joins results of further samples. % is set by controls: 0 for no effect and ±100 for the full control effect; potency is the fitted concentration of half-maximal effect. A portion of the library. The share of hits here may be higher or lower than overall.

No.	SMILES	HPGD block
1	O=C1C2=C(CCCC2)C(=O)N1c1cccc(OCCBr)c1	-5%
2	CCOC(=O)c1ccccc1NC(=O)c1cccc(F)c1	-7%
3	COc1ccc(NC(=O)Nc2ccc(C(=O)N3CCOCC3)cc2)cc1	?
4	O=C1CCCc2ccccc2N1Cc1ccc(Cl)cc1Cl	-6%
5	Cc1cc(C(=O)Nc2cccc(O)c2)c(C)o1	-10%
6	O=C(O)C1CCCN(C(=O)NCc2ccccc2)C1 (stereo not given)	-3%
7	CCCCCCCC[n+]1cccc(C(=O)N(CC)CC)c1	-8%
8	Cc1cccc(Nc2nc(-c3ccc4c(c3)OCCO4)cs2)c1	-8%
9	Cc1c(Cl)c([N+](=O)[O-])nn1CCCC(=O)Nc1cc(Cl)ccc1Cl	-9%
10	Cc1ccc(-c2csc3ncnc(SCC(=O)NCc4ccc5c(c4)OCO5)c23)cc1	-10%
11	CC(C(=O)Nc1nc2ccccc2[nH]1)N1C(=O)C2CC=CCC2C1=O (stereo not given)	-11%
12	CCOC(=O)c1[nH]c(C)c(C(=O)N2CCN(c3cccc(Cl)c3)CC2)c1C	-13%

Following part
No.	SMILES	HPGD block
13	CC(Sc1nc(N(C)C)nc(N2CCOCC2)n1)C(=O)Nc1ccccc1 (stereo not given)	0%
14	COc1cccc(OCCn2cc(C(=O)c3ccco3)c3ccccc32)c1	?
15	Cn1c(NC(=O)Cc2cccs2)cc(=O)n(C)c1=O	-8%
16	CCOC(=O)c1c(C)oc2cc(Br)c(OCC(N)=O)cc12	-3%
17	O=C(Nc1cnn(Cc2ccc(Cl)cc2)c1)c1cnccn1	-10%
18	CC1CCCCN1CCNC(=O)CC1Oc2ccccc2NC1=O (stereo not given)	0%
19	COCCCNC(=O)C(C#N)c1nc2ccccc2nc1N1CCCC1 (stereo not given)	?
20	COC(=O)NCc1cccc(CNC(=O)OC)c1	-3%
21	Cc1ccc2sc(NNC(=O)C3COc4ccccc4O3)nc2c1C (stereo not given)	-26%
22	COC(=O)c1cccc(NC(=O)Cc2ccccc2[N+](=O)[O-])c1C	-7%
23	CC(C)C1Cc2c(C#N)c(N)sc(=S)c2CO1 (stereo not given)	-10%
24	Cc1cc(=O)oc2cc(Oc3ccc([N+](=O)[O-])cc3[N+](=O)[O-])ccc12	-19%

Fetched by structure from the list above:
No.	SMILES	HPGD block
16	CCOC(=O)c1c(C)oc2cc(Br)c(OCC(N)=O)cc12	-3%
21	Cc1ccc2sc(NNC(=O)C3COc4ccccc4O3)nc2c1C (stereo not given)	-26%
14	COc1cccc(OCCn2cc(C(=O)c3ccco3)c3ccccc32)c1	?
23	CC(C)C1Cc2c(C#N)c(N)sc(=S)c2CO1 (stereo not given)	-10%
17	O=C(Nc1cnn(Cc2ccc(Cl)cc2)c1)c1cnccn1	-10%

(listing goes on)
No.	SMILES	HPGD block
25	O=C(Cc1ccccc1)Nc1cccc(N2C(=O)C=CC2=O)c1	3.5µM*
26	COc1cc(-c2coc3cc(OC)c(OC)c(OC)c3c2=O)cc(OC)c1OC	-5%
27	CCOC(=O)c1ccc(NC(=O)c2cc(OC)c(OC)c(OC)c2Br)cc1	-7%
28	O=C(c1ccncc1)N1CCN(c2cccc(C(F)(F)F)c2)CC1	-8%
29	O=C(OCCOCCN=C1NS(=O)(=O)c2ccccc21)C1CC(=O)N(c2ccccc2)C1 (stereo not given)	1%
30	CC(=O)Nc1ccc(S(=O)(=O)NNC(=O)CCC(=O)Nc2cc(C)ccc2C)cc1	-9%
31	COc1ccc(S(=O)(=O)Nc2cc(C)c(O)c(S(=O)(=O)c3ccccc3)c2)cc1	-2%
32	CC(=O)c1cnc2cc(-c3ccccc3)nn2c1C	?
33	Cc1ccc2nc(NC(=O)CSCC(=O)OCC(=O)c3ccc(Br)cc3)sc2c1	-2%
34	C=CCc1ccc(OCC(O)CN2CCCCC2C)c(OC)c1 (stereo not given)	-6%
35	Clc1ccc(CSc2snnc2-c2ccccc2)cc1	-9%
36	Cn1cc([N+](=O)[O-])c(C(=O)Nc2ccc(C(=O)N3CCCCC3)cc2)n1	0.4µM*

Further compounds follow.
No.	SMILES	HPGD block
37	CCOc1cc(C2NC(=O)NC(O)(C(F)(F)F)C2C(=O)c2ccccc2)ccc1OC (stereo not given)	3%
38	CCOC(=O)C1=C(c2ccccc2)ON(C)C1c1ccccc1 (stereo not given)	-11%
39	CCn1cc(C(=O)NCCCN(C)C)c(=O)c2cc(F)c(N3CCN(C)CC3)cc21	?
40	CC(C)CNS(=O)(=O)c1ccc(CCC(=O)N2CCOCC2)cc1	-3%
41	CCC(C)(C(=O)NC1CCCCC1)N(C)C(=O)c1ccccn1 (stereo not given)	-5%
42	Cn1ncc(C#N)c1NC(=O)c1nn2cccnc2c1Cl	3%
43	C=CCn1c(COc2ccccc2F)nnc1SCCN1C(=O)c2ccccc2C1=O	-3%
44	CC(C)CNC(=S)N(Cc1ccco1)Cc1cc2cc3c(cc2[nH]c1=O)OCCO3	?
45	CCOc1ccc(NC(=O)CCC(=O)n2nc(C)cc2C)cc1	-8%
46	O=C(NC(=S)Nc1ccccn1)c1ccco1	-15%
47	N#Cc1c(-c2ccc(Cl)cc2)nc2n(c1=O)CCCS2	-25%
48	O=C(CSc1nc2ccccc2c(=O)n1-c1ccccc1)NCc1ccc2c(c1)OCO2	-13%

By substructure, those above with a CF3 group (two)
No.	SMILES	HPGD block
28	O=C(c1ccncc1)N1CCN(c2cccc(C(F)(F)F)c2)CC1	-8%
37	CCOc1cc(C2NC(=O)NC(O)(C(F)(F)F)C2C(=O)c2ccccc2)ccc1OC (stereo not given)	3%

Entries 20 through 22 from above:
No.	SMILES	HPGD block
20	COC(=O)NCc1cccc(CNC(=O)OC)c1	-3%
21	Cc1ccc2sc(NNC(=O)C3COc4ccccc4O3)nc2c1C (stereo not given)	-26%
22	COC(=O)c1cccc(NC(=O)Cc2ccccc2[N+](=O)[O-])c1C	-7%

(continued)
No.	SMILES	HPGD block
49	COc1ccc(OC)c(NC2=NC3(CCCCC3)N=C(N)N2)c1	-6%
50	O=C(NC1CCCCC1)C(c1ccc2ncccc2c1)N(Cc1ccccc1)C(=O)c1ccc2c(c1)OCCO2 (stereo not given)	-1%
51	COc1cc(OC)c(OC)cc1CN1CCN(S(=O)(=O)c2ccc(F)cc2)CC1	-13%
52	COC(=O)c1ccc(NC(=O)CN(Cc2ccc(Cl)cc2)S(C)(=O)=O)cc1	-22%
53	COc1ccc(C(=S)N2CCN(C)CC2)cc1	-18%
54	O=C(/C(C=Nc1ccc(F)cc1)=C(/O)c1ccco1)C(F)(F)F	-16%
55	Cc1ccc(S(=O)(=O)N(C)C)cc1NS(=O)(=O)c1ccc(Cl)s1	-16%
56	CCN1CCN(c2ncnc3c2nnn3Cc2ccccc2)CC1	-13%
57	CCSc1ncc(/C=N/Nc2ccc([N+](=O)[O-])cc2)n1C	-10%
58	Clc1ccccc1-c1nn2c(COc3ccccc3)nnc2s1	28µM*
59	CN(c1ccc(OCC(=O)Nc2nc(-c3ccccc3)cs2)cc1)S(=O)(=O)c1ccc(F)cc1	-4%
60	O=C(NCc1ccccn1)c1ccc2ccccc2n1	-17%

Later entries.
No.	SMILES	HPGD block
61	Nc1nc(SCC(=O)c2ccc(Br)cc2)c2[nH]cnc2n1	1%
62	O=S1(=O)c2cccc3cccc(c23)N1Cc1nnc(-c2ccccc2Br)o1	?
63	COC(=O)c1ccccc1NC(=S)NC(=O)C1CC1	-10%
64	CCCCCC/C(=N\NS(C)(=O)=O)c1ccccc1	-13%
65	COc1ccc(C(=O)NCc2nnc(SCC(=O)Nc3cc(C)cc(C)c3)o2)cc1OC	-7%
66	CCOC(=O)c1c(NC(=O)COc2cccc3c2CCN(Cc2ccc(F)cc2)C3=O)sc2c1CCC2	-19%
67	Cc1ccc(-c2onc3ccc(Cl)cc23)cc1	-5%
68	Cc1noc(C(=O)Nc2c(C)n(C)n(-c3ccccc3)c2=O)c1Cl	-8%
69	CCN(CC)CCCN=Cc1c(O)n(Cc2ccccc2)c(=O)c2ccccc12	?
70	Cc1nnc(N(C(=O)c2cnccn2)c2ccccc2)s1	-2%
71	CC(=O)Nc1ccc(NC(=O)COC(=O)Cc2cccs2)cc1	-8%
72	COC(=O)CC[C@@H](C(=O)O)N1C(=O)c2ccccc2C1=O	-8%

Remaining list, next part:
No.	SMILES	HPGD block
73	CN(C)Cc1ccccc1-c1cncnc1NC1CC1	-1%
74	Cc1cccc(NC(=O)c2ccc([N+](=O)[O-])cc2Cl)n1	-7%
75	C/C(N)=C(/C#N)C(=O)CSc1nnc(SCc2ccc(Cl)cc2)s1	-15%
76	COC(=O)C(CCSC)NC(=O)CNC(=O)C1CCCCC1 (stereo not given)	-4%
77	COc1cc(/C=C/C(=O)N2C(=O)c3cccc(N)c3C2=O)cc(OC)c1OC	-27%
78	COCCNCCOCCOc1ccc(Cl)c(C)c1	9%
79	O=C(NCc1ccccn1)[C@H]1C[C@@H]1[C@H](NP(=O)(c1ccccc1)c1ccccc1)c1ccccc1	-14%&-9%
80	Cc1c(Cl)cnc(NC(=O)COC(=O)c2ccc3c(c2)OCO3)c1Cl	-18%
81	C/C(CC(=O)Nc1cc(Cl)ccc1Cl)=N\NC(=O)c1ccco1	3%
82	CCn1nc(C)c(/C=N/NC(=O)Cn2nc(C)cc2C)c1C	-13%
83	Cc1[nH]nc2c1C1(C(=O)N(Cc3ccc(Cl)cc3)c3ccccc31)C(C#N)=C(N)O2 (stereo not given)	-10%
84	O=C(NC1CCCCC1)N1CCCC(c2nc(-c3cccs3)no2)C1 (stereo not given)	-9%

Going on with the list.
No.	SMILES	HPGD block
85	Cc1cccc(C)c1NC(=O)COC(=O)CCc1ccc(S(=O)(=O)N2CCCCC2)cc1	-15%
86	COc1cccc(-n2nc3c(-n4ncc(C#N)c4N)nnc(C)c3c2C)c1	-3%
87	COC(=O)COc1ccc(S(=O)(=O)NCc2cccnc2)cc1C	-7%
88	C#CCOC(=O)C(NC(=O)c1ccccc1)=C(C)C	0%
89	COc1ccc(-n2sc3c(c2=S)-c2cc(OC)ccc2NC3(C)C)cc1	-29%
90	COc1ccc2cc(C(=O)N3CCCCCC3)sc(=O)c2c1OC	0.13µM*
91	Fc1cccc(/C=N/Nc2ncnc3nc[nH]c23)c1	-12%
92	Cc1cc(C)n(-c2nc3ccccc3nc2N2CCN(C(=O)c3ccc(Cl)cc3)CC2)n1	-15%
93	Cc1ccc(S(=O)(=O)Nc2ccc3c(c2)CCC3)cc1	-18%
94	O=C(NC1(C(F)(F)F)C(=O)Nc2c1c(=O)[nH]c(=O)n2Cc1ccco1)C1CC1 (stereo not given)	-20%
95	Cn1cnc2c(NC3CCCC3)ncnc21	4%
96	Cc1cc(NC(=O)CCS(=O)(=O)c2nc(-c3ccccc3)cc(C(F)(F)F)n2)no1	?

The list goes on.
No.	SMILES	HPGD block
97	COc1ccc(C2C(C(=O)N3CCOCC3)c3ccccc3C(=O)N2c2ccc(OC)cc2)cc1 (stereo not given)	-10%
98	Cc1ccc(Nc2ccc(C(N)=O)cc2[N+](=O)[O-])cc1	-24%
99	O=C(CN1C(=O)c2ccccc2S1(=O)=O)NC1CCCCCC1	-13%
100	Nc1nc(SCC(=O)NCc2ccc(F)cc2)[nH]c(=O)c1NC(=O)c1ccc(Cl)cc1	0%
101	CCSc1nc(N2CCOCC2)c2ccccc2n1	-17%
102	O=C(Nc1ccc(N2CCOCC2)cc1)c1ccc2nc(-c3ccco3)c(-c3ccco3)nc2c1	-9%
103	CCc1cccc(OCCn2ccnc2)c1	-23%
104	CCOc1ccc(OC(=O)c2cccnc2)cc1	-6%
105	CCOC(=O)C1CCCN(Cc2nc(N)nc(Nc3ccc(C)cc3)n2)C1 (stereo not given)	-6%
106	CCc1ccc(C2C3=C(CCCC3=O)OC3=C2C(=O)CCC3)cc1	-12%
107	COc1ccc2c(c1)c1nnc(SCC(=O)N3C(C)CCCC3C)nc1n2C (stereo not given)	11µM*
108	c1ccc(Nc2cccc(Nc3ccccc3)c2)cc1	8%

Remaining list, next part.
No.	SMILES	HPGD block
109	CSc1ncnc2c1ncn2[C@@H]1O[C@@H](CO)[C@H](O)O[C@@H]1O	-3%
110	COc1cccc(C2CC(c3ccc(F)cc3)Nc3nc(N)nn32)c1 (stereo not given)	-5%
111	CC(=O)O[C@H]1CC[C@@]2(C)C(=CC[C@@H]3[C@H]4CC[C@@H]([C@H](C)C(=O)O)[C@]4(C)CC[C@H]32)C1	-9%
112	Cc1ccc(-n2c(Cc3cccn3C)nnc2SCC(=O)NCc2ccc3c(c2)OCO3)cc1	-5%
113	COCCn1c(C)cc(C(=O)CSc2nc3ccccc3c(=O)n2Cc2ccco2)c1C	-15%
114	CCOc1ccc(OCCOc2cccc(C(F)(F)F)c2)cc1	-4%
115	CCC(=O)Oc1ccc(-c2cnc3ccccc3n2)cc1	-19%
116	CN1CCN(C(=O)c2ccc(COc3ccc(C(C)(C)C)cc3)o2)CC1	-9%
117	CNC(=O)COC(=O)/C=C/c1c(C)nn(-c2ccccc2)c1C	-11%
118	Cc1ccn(C(=O)c2cc3cc(Cl)ccc3oc2=O)n1	-26%
119	O=C(NC1C=CS(=O)(=O)C1)c1sc2ccccc2c1Cl (stereo not given)	-26%
120	CCOC(=O)c1sc2nc3c(cc2c1N)COC(C)(CC)C3 (stereo not given)	?

(continued)
No.	SMILES	HPGD block
121	COC(=O)N/N=C/c1ccc([N+](=O)[O-])o1	-11%
122	O=C(CSc1nc2c(cnn2-c2ccc(F)cc2)c(=O)[nH]1)Nc1nccs1	2%
123	O=C(/C=C/c1ccc(F)cc1)Nc1cc(S(=O)(=O)N2CCOCC2)ccc1N1CCCC1	-13%
124	COc1ccc(C2C(C(C)=O)=C(O)C(=O)N2C)c(OC)c1 (stereo not given)	-9%
125	CCOC(=O)c1cc2sc(C)cc2n1CC(=O)Nc1ccc2c(c1)OCCO2	-11%
126	Cc1cc(C(=O)CSc2nc3ccccc3n2C)c(C)n1C	-2%
127	Cc1cc(OCCOCCNC(C)C)cc(C)c1Cl	6%
